# Screening results (PubChem)
# KCNQ2 pot – enhances the rat KCNQ2 potassium channel; AID 2239; hit rate 0.54% among 310,000; B-score at 10 µM; O88943; CHO-K1 KCNQ2, FluxOR thallium flux fluorescence; stronger effect = higher value;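 active means fluorescence ratio B-score at least 3 SD of library B-scores, with initial fluorescence B-score within 3 SD, cut at about 5.3 in these data; same plate scores as AID 2156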;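 further: B-score of peak minus minimum over baseline fluorescence ratio after K+ and Tl+ stimulus; positive B-score means potentiation of KCNQ2 with more thallium influx and brighter signal; only the inactives scoring about 0 or higher are listed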
# Target sequence (O88943 whole entry, looked up): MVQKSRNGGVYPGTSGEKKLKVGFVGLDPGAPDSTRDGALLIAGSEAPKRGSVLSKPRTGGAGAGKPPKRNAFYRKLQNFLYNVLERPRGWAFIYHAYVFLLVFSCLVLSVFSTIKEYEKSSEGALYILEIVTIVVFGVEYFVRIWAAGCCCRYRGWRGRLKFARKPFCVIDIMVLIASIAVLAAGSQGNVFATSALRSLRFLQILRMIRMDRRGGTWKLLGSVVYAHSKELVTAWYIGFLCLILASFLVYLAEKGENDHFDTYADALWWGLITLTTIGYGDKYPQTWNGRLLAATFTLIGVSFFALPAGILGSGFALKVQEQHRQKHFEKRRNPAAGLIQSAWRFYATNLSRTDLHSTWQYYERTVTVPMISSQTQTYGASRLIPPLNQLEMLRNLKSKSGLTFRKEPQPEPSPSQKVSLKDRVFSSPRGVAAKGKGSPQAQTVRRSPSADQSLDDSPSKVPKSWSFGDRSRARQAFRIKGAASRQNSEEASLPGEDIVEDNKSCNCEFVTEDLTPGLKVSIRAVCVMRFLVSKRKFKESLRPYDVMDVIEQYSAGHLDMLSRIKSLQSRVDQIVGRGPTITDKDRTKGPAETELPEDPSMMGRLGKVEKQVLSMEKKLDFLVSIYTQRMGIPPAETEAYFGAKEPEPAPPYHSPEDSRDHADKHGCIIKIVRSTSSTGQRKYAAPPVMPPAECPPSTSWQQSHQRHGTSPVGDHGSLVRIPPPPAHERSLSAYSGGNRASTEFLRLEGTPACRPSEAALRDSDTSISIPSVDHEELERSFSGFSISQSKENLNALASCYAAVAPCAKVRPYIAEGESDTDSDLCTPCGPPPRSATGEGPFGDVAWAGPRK
# KCNQ2 pot baseline – also measured in KCNQ2 pot; calls as there; B-score; compound at 10 µM; measured here: initial fluorescence intensity artifact check;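 brightness before thallium and not channel activity; 0 = typical well and far values either way flag optical interference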
# * = called active by the depositor. Some of the compounds tested, so the mix of outcomes need not match the whole.
# Fields: KCNQ2 pot, KCNQ2 pot baseline
CCOc1ccc(/C=N/N(C)c2ccccc2)cc1OC
    2.41, -0.81
COc1cccc(C=Nc2ccc(C)c(F)c2)c1O
    0.08, -0.15
COC(=O)c1scc(C#N)c1N/N=C(\C#N)S(=O)(=O)c1ccc(Cl)cc1
    0.87, 0.49
O=C(NC1CCCc2ccccc21)c1cccnc1 (stereo not given)
    0.23, 1.04
O=C(Cn1cnc2ccccc2c1=O)c1cccs1
    0.24, -0.06
O=C(Cn1c(=O)c2cccn2c2ccc(F)cc21)NCCCN1CCN(c2ccccc2F)CC1
    0.64, 0.23
CN(C)CCCN=Cc1c(O)n(Cc2ccc3c(c2)OCO3)c(=O)c2ccccc12
    0.31, 0.65
CCCCCn1c(CN2CCN(c3cccc(Cl)c3)CC2)nc2c1c(=O)[nH]c(=O)n2C
    0.74, 0.41
Cc1cccn2c(=O)nc(SCC(=O)NCc3ccco3)nc12
    0.48, -0.79
O=C(NCCN1CCCC1=O)C1CCC(=O)N(CCc2cccc(F)c2)C1 (stereo not given)
    0.48, 0.11
CN(C)S(=O)(=O)c1ccc(C(=O)NCc2nnc(SCC(=O)Nc3ccc(F)cc3)n2-c2ccc(F)cc2)cc1
    0.34, -0.92
O=C(O)CCCCCNC(=O)c1ccccc1Br
    0.64, 0.49
CCOc1cc(S(=O)(=O)n2cnc(C)c2)ccc1Cl
    1.89, 0.55
COc1ccc(CCNC(=O)c2ccc(N3CCCC3=O)cc2)cc1OC
    0.31, -1.65
Cc1cc(C)nc(N2CCC(C(=O)NNC(=O)Cc3ccccc3)CC2)n1
    0.42, 0.64
COP(=O)(OC)c1nc(-c2cccc3ccccc23)oc1N1CCOCC1
    0.51, -2.23
O=C(NNC(=S)NC(=O)c1ccc(Br)cc1)c1ccc([N+](=O)[O-])cc1
    0.06, -0.78
O=c1c2[nH]c3ccccc3c2ncn1Cc1ccccn1
    0.72, -2.3
CC(NC(=O)CC1CCCCC1)c1ccccc1 (stereo not given)
    5.3*, -2.12*
CC1(C)C2([N+](=O)[O-])CN3CC1([N+](=O)[O-])CN(C2)C3c1ccccc1 (stereo not given)
    0.11, -0.15
CC1CN(CCC(=O)Nc2ccc3c(c2)CCC3)CC(C)O1 (stereo not given)
    2.56, -2.25
Cc1ccc(-c2ccc(SCC(=O)c3ccccc3)nn2)cc1
    0.8, -1.13
COCCCNC(=S)NNC(=S)Nc1ccc(OC)cc1
    0.12, -1.05
O=C(Nn1cnc2ccccc2c1=O)c1c(F)cccc1F
    1.08, -0.3
Cc1ccc(C)c(NS(=O)(=O)c2cc(C(=O)NCc3ccccn3)ccc2Cl)c1
    0.49, 0.54
COc1ccc(OC)c(NC(=O)C2CCN(S(=O)(=O)c3ccc4c(c3)CC(C)N4C(C)=O)CC2)c1 (stereo not given)
    0.93, -0.98
COc1ccc2cc(Br)ccc2c1CC(=O)NCCCN1CCOCC1
    0.5, 0.37
COc1cc2c(=O)nc3n(c2cc1OC)C(c1ccccc1)N=C(N)N3 (stereo not given)
    2.1, 0.23
COc1ccc(-n2ccnc2SCC(=O)NCc2ccc(F)cc2)c(OC)c1
    0.24, 0.68
O=C(CCl)NC(=O)NC12CC3CC(CC(C3)C1)C2
    0.42, -1.72

# Retrieved one by one from the list above:
# Fields: KCNQ2 pot, KCNQ2 pot baseline
CC1CN(CCC(=O)Nc2ccc3c(c2)CCC3)CC(C)O1 (stereo not given)
    2.56, -2.25
O=C(NCCN1CCCC1=O)C1CCC(=O)N(CCc2cccc(F)c2)C1 (stereo not given)
    0.48, 0.11
CC(NC(=O)CC1CCCCC1)c1ccccc1 (stereo not given)
    5.3*, -2.12*
Cc1ccc(C)c(NS(=O)(=O)c2cc(C(=O)NCc3ccccn3)ccc2Cl)c1
    0.49, 0.54
COC(=O)c1scc(C#N)c1N/N=C(\C#N)S(=O)(=O)c1ccc(Cl)cc1
    0.87, 0.49
O=C(Nn1cnc2ccccc2c1=O)c1c(F)cccc1F
    1.08, -0.3

# Additional structures:
# Fields: KCNQ2 pot, KCNQ2 pot baseline
O=C(Nc1ccc(C(=O)NCc2ccccc2)cc1)C1=CSCCO1
    0.54, -0.01
CC1CCc2c(sc(/N=C/N(C)C)c2C#N)C1 (stereo not given)
    1, -0.84
O=C(COC(=O)c1cncc(Br)c1)NC1CC1
    0.48, 0.59
NC(=S)n1[nH]c(-c2ccc([N+](=O)[O-])cc2)c(N=Nc2ccc(O)cc2)c1=O
    0.09, -0.86
CCn1c(=O)c2cc(C(=O)N3CCCC3)sc2c2ccccc21
    0.28, 0.04
COc1ccccc1NC(=O)CCc1nc2ccccc2s1
    0.72, 0.09
O=C(CSc1nnnn1-c1ccccc1)Nc1ncc(Cc2cccc(Cl)c2Cl)s1
    1.3, 0
Cc1nccn1-c1c2c(c(C#N)c3nc4ccccc4n13)CCC2
    0.93, -0.54
Cc1cc(C)cc(OCc2ccc(C(=O)O)o2)c1
    1.93, 0.97
CCN(CC)c1nc2ccccc2n2cnnc12
    3.06, -0.69
COc1ccccc1NC(=O)CN1CCN(CC(=O)Nc2ccccc2Cl)CC1
    0.66, -0.65
Cc1ccc(Nc2nc(CSc3nnnn3-c3ccccc3)cc(=O)[nH]2)cc1
    0.04, 0.98
CCOC(=O)C1C(=O)NC(c2ccccc2)=NC1c1ccc(F)cc1 (stereo not given)
    0.04, -0.01
COc1ccc(Nc2c3c(nc4ccccc24)CCCC3)cc1OC
    1.39, -1.37
C/C(=N\NC(=O)C(=O)Nc1c(C)n(C)n(-c2ccccc2)c1=O)c1ccncc1
    0.56, 1.93
CN(C)c1ccc(NC(=S)c2ccc3ccccc3n2)cc1
    0.95, -1.16
COc1ccc(N(CN2C(=O)c3ccccc3C2=O)C(=O)C(C)C)cc1
    1.01, -0.82
O=C(CN(Cc1ccccc1)C(=O)CCC(=O)Nc1ccccn1)NCc1ccc(F)cc1
    0.38, 0.29
Cc1ccc(SCCC(=O)Nc2c(C)n(C)n(-c3ccccc3)c2=O)cc1
    0.04, 0.72
COc1ccc(C(=O)N2CCC(C(=O)N3CCN(Cc4ccccc4)CC3)CC2)cc1
    0.08, 1.02
CSCCC(NS(=O)(=O)c1ccc(Cl)cc1)C(=O)OCC(=O)NC1CCCCC1 (stereo not given)
    0.4, 1.76
CCOC(=O)c1nnn(-c2ccc([N+](=O)[O-])cc2[N+](=O)[O-])c1C
    1.99, -0.57
COc1ccc(CNCc2cc(OC)ccc2OC)cc1
    1.46, 1.5
COCCn1ccc2c(OCC(=O)NCc3ccccc3)cccc2c1=O
    0.56, -0.12
COc1cc(C(=O)N2CCN(C/C=C/c3ccccc3)CC2)cc(OC)c1OC
    1.51, 0.03
O=C(CSc1nc2ccccc2nc1N1CCCC1)Nc1ccc(F)cc1
    0.61, -0.31
O=C(NCCc1ccc(Cl)cc1)c1ccc(Br)s1
    0.77, 0.8
CC(C)(C)c1cc(CCC(=O)NNC(=S)NC(=O)c2ccccc2)cc(C(C)(C)C)c1O
    0.16, -1.23
N#CC1=C(S)N(c2ccccc2)C2(CCCCC2)NC1=O
    1.86, 1.11
Cc1ccc(C(C)C)c(O)c1
    0.19, 0.28
COc1ccc(N2CCN(S(=O)(=O)CCNC(=O)C(C)Oc3ccccc3)CC2)cc1 (stereo not given)
    0.09, 1.61
Cc1nnc(SCC(=O)Nc2cc(S(=O)(=O)N3CCCC3)ccc2Cl)s1
    0.03, -1
CN(CC(=O)Nc1cccc2c1CCCC2)S(=O)(=O)c1ccc(Br)cc1
    0.73, 0.91
Cc1cn(C2CCC(CO)O2)c(=O)[nH]c1=O (stereo not given)
    1.92, 0.07
COc1cc(NC(=S)NCCCN2CCOCC2)c(OC)cc1Cl
    0.07, 0.39
Cc1cc(N(C)C)ccc1N=Nc1ccc2ncccc2c1
    1.8, -0.61
O=C(Cn1cc(C(=O)C(F)(F)F)c2cc(Br)ccc21)N1CCOCC1
    1.68, -0.04
Cc1nc2ccccc2c2c1C(=O)N(c1cccc(C(=O)O)c1)C2=O
    1.08, 0.56
COc1ccc(C2CC(c3ccccc3Cl)Nc3ncnn32)cc1OC (stereo not given)
    0.05, 0.19
O=C(CN1C(=O)NC2(CCCCCC2)C1=O)NC1CC1
    0.85, -0.33
Cc1ccc(NC(=O)c2ccc3c(c2)OCCO3)cc1
    0.07, -0.76
O=C(CCN1C(=O)/C(=C/c2ccccc2F)SC1=S)NC1C=CS(=O)(=O)C1 (stereo not given)
    0.01, 0.38
C/C(=N\O)c1ncc(C(F)(F)F)cc1Cl
    1.04, -0.07
COc1cc(CN2C(=O)C(NC(=O)c3ccco3)(C(F)(F)F)C3=C2CC(C)(C)CC3=O)cc(OC)c1 (stereo not given)
    0.03, -2.04
CCCCNC(=S)Nc1ccc2nc(N3CCN(CC)CC3)cc(C)c2c1
    1.49, 0.68
Cc1ccc(CNC(=O)c2ccc(S(=O)(=O)N(C)C)cc2)n1C
    1.14, 0.77
COc1ccc(C(=O)Cn2nc(CNc3ccc(Br)cc3)[n+]3c2CCCCC3)cc1
    1.62, -2.96
CC1(C)CC(NC(=O)COc2cc3oc(=O)c4c(c3cc2Cl)CCC4)CC(C)(C)N1
    1.05, -1.99
COc1cccc(NC(=O)N2C3CCCC2CC(NC(C)=O)C3)c1 (stereo not given)
    0.02, -0.09
Cc1ccc2nc3c(cc(C#N)c(=O)n3-c3nccs3)c(=O)n2c1
    0.03, 0.27
Cc1ccc(N2CC(C)Cn3c2nc2c3c(=O)[nH]c(=O)n2C)cc1 (stereo not given)
    0.01, 0.08
Cc1cc(Cl)c(S(=O)(=O)NC2CCCCC2)cc1OCC(=O)Nc1nncs1
    2.24, 0.38
O=C1CSc2ccc(C(=O)O)cc2N1
    0.07, 0.34
Cc1cc(Br)cc2cn[nH]c12
    0.25, 2.08
O=C(O)CC1S/C(=N\N=C/c2ccccc2)N(c2ccc(O)cc2)C1=O (stereo not given)
    1.24, 2.21
CCC(C)[C@H](NC(=O)NCCCOC(C)C)C(=O)OC (stereo not given in full)
    0.68, 0
CC(=O)Oc1ccccc1C1OC(=O)c2ccccc2N1C(C)=O (stereo not given)
    0.11, -0.22
COc1ccc(CCCc2nnc(SCC(=O)Nc3cc(C)c(C)cc3Br)o2)cc1
    0.96, -0.06
CCC(=O)Nc1ccc(NCc2cccs2)cc1
    1.69, -0.8
COc1cc(C)c(S(=O)(=O)n2nnc3ccccc32)cc1C
    0.41, 1.4

# (list continues)
SMILES	KCNQ2 pot	KCNQ2 pot baseline
COc1ccc(CNC(=O)c2cc(-c3cc(C)ccc3O)n[nH]2)cc1	0.17	-0.53
COc1ccc(-n2c(SC)nc(O)cc2=O)cc1	1.85	0.05
CCN(CC)CCNC(=O)CCn1c(=S)[nH]c2cc3c(cc2c1=O)OCO3	0.67	1.11
COc1ccc(C(=O)NCCN2C(=O)S/C(=C\c3cccnc3)C2=O)c(OC)c1OC	0.01	-0.02
Cn1c(CCCOc2ccc(Cl)cc2Cl)n[nH]c1=S	0.01	-0.38
O=C(/C=C/c1ccccc1Cl)Nc1ccc(-c2nnc3n2CCCCC3)cc1	0.82	0.42
COCCN(CCOC)S(=O)(=O)c1ccc(C(=O)Nc2sc3c(c2C(N)=O)CCCCC3)cc1	0.31	-1.13
CCCCN(CC)C(=O)CN1C(=O)c2ccccc2C1=O	0.99	-0.02

# Overlap with the part before: 3 entries; new compounds follow.
SMILES	KCNQ2 pot	KCNQ2 pot baseline
O=C(/C=C/c1ccccc1Cl)Nc1ccc(-c2nnc3n2CCCCC3)cc1	0.82	0.42
COCCN(CCOC)S(=O)(=O)c1ccc(C(=O)Nc2sc3c(c2C(N)=O)CCCCC3)cc1	0.31	-1.13
CCCCN(CC)C(=O)CN1C(=O)c2ccccc2C1=O	0.99	-0.02
CC(=O)c1sc(Nc2nc3cc4c(cc3s2)OCO4)nc1C	2.58	-0.55
CS(=O)(=O)N1CCc2cc(C(=O)Nc3ccc(Cl)cc3)ccc21	1.05	0.78
O=C(Nc1cc2c3c(c1)CC(=O)N3CCC2)c1ccc(Br)cc1	0.39	-0.4
Cc1ccnc(NS(=O)(=O)c2ccc(N3C(=O)c4ccccc4C3=O)cc2)n1	0.82	0
CCOC(=O)c1cnc(-n2nc(C)cc2C)nc1Nc1ccc(C)cc1	0.23	-0.97
COc1ccc(CCN2CC(C(=O)Nc3ccc(S(C)(=O)=O)cc3)CC2=O)cc1OC (stereo not given)	1.2	0.79
Cc1cc(C)nc(NS(=O)(=O)c2ccc(NC(=O)CCCN3C(=O)c4ccccc4C3=O)cc2)n1	0.55	0.24
Cc1cc(C)cc(N(C(C)C(=O)N2CCCCC2)S(C)(=O)=O)c1 (stereo not given)	0.77	-1.61
C=CCOc1ccc(/C=C/C(=O)OCC(=O)NC(C)c2ccc(F)cc2)cc1 (stereo not given)	3.11	-3.7
O=C(Nc1ccc2c(c1)OCO2)C1CC(c2c(F)cccc2Cl)=NO1 (stereo not given)	0.42	-1.51
CC(C)(C)NC(=S)NC1CC1	0.02	-0.29
CN(C)CCCn1c(=O)n(Cc2ccco2)c(=O)c2c3c(sc21)CCCCC3	0.54	-1.96
Cc1cccc(Sc2c([N+](=O)[O-])ncn2C)c1	1.22	-0.83
CCN(CC)CCNC(=O)c1ccccc1N	1.51	-0.09
CC(C)CN(C(=O)COC(=O)c1ccc2ccccc2c1)c1c(N)n(Cc2ccccc2)c(=O)[nH]c1=O	0.01	-0.83
COc1ccc(NS(=O)(=O)c2cccs2)cc1S(=O)(=O)N1CCCCC1	1.21	2.23
CC(C)[C@H]1C(=O)Nc2ccccc2N1C(=O)N[C@@H](Cc1ccccc1)C(=O)N[C@H](C(=O)O)c1ccccc1	1.6	-0.46
CC(=O)NC(Cc1ccccc1)Cc1ccccc1	0.08	0.46
COc1ccc(C2C(C(C)=O)=C(O)C(=O)N2Cc2ccccc2)c(OC)c1 (stereo not given)	0.55	0.22
CN(C)/C=C(\C#N)S(=O)(=O)C(C)(C)C	0.16	1.7
